Prx2 Sm inh: Schistosoma mansoni Prx2 inhibition | S. mansoni Prx2 activity coupled to TGR/GSH (TGR is thioredoxin glutathione reductase), NADPH fluorescence loss, qHTS; some inactives read as strong as hits | Potency, µM | 65,000 compounds, 0.07% hits | AID 448; active means full or partial inhibition curve with a strong effect at the top dose; inconclusive means weaker partial or single-point curve; inactive means no accepted curve; further: series up to 57 µM; many of its hits are not listed in these tables
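Prx2 inhibition was measured as reduced NADPH consumption when electrons flowed from NADPH through TGR and glutathione to Prx2 and H2O2. Plates were read kinetically over 8 min; enzyme reagents were held at 4 deg C during dispensing.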
LT uptake inh: anthrax lethal toxin internalization inhibition. Potency, µM (series often up to 40 µM), for inactives: at the highest dose activity change, negative = inhibition, hits mostly inhibitors. Cells, anthrax lethal toxin internalization, FRET ratio (460/530). AID 912. 70,000 compounds, 0.67% hits; active = well fitted falling ratio curve with the 530 nm signal flat; inconclusive = other ratio curves, or a change in one channel alone; inactive = flat curves in the ratio and both channels; the % refers to the ratio; further: on the % scale 0 is the no-effect control and ±100 the full control effect; nearly all actives have a fitted effect of over 50% in size; tested in ME-180 cells; beta-lactamase reporter
* marks the source's active call; other numbers are inactive results; u = inconclusive; x = not tested or not shown; & = joins results of further samples; [ ] = remark or other dose. Potency means the concentration at half of the fitted maximal effect.

SMILES	Prx2 Sm inh	LT uptake inh
C/C(=C\C(=O)c1ccccc1)Nc1cccc(O)c1	>57	u
CCc1c(C)[nH]n(-c2ccc(Oc3ccccc3)c(S(=O)(=O)O)c2)c1=O	x	2.3%
O=C(Nc1nc(-c2cc(Cl)sc2Cl)cs1)c1cccs1	>57	u
Cc1ccc(CN(C)C(=O)C2CCCN2C(=O)c2cccs2)o1 (stereo not given)	>57	19.9%
O=C(NCCN1CCN(c2ccccc2)CC1)C1CCN(S(=O)(=O)N2CCOCC2)CC1	>57	-4.4%
CC(C)Cn1c(N)c(C(=O)CSc2ccc3c(c2)OCCO3)c(=O)n(C)c1=O	>57	0.2%
Cn1c(=O)c(=O)n(C)c2cc(S(=O)(=O)N3CCOCC3)ccc21	>57	-6.6%
CCOC(=O)c1cnc(SCC)[nH]c1=O	>57	-2.0%
CCOC(=O)c1c(C)n(C)c2c(C)cc(O)c(OC(C)=O)c12	x	-15.5%
NC(=O)c1ccccc1NC(=O)CS(=O)(=O)Cc1ccccc1	>57	x
CCCCCCOc1ccc(/C(N)=N/O)cc1	>57	18.2%
Cc1ccc2c(c1)N(CC(=O)NCC1COc3ccccc3O1)C(=O)CO2 (stereo not given)	>57	-7.3%
CC1=C(C#N)c2nc(N)c(C#N)c(C)c2/C1=C\c1ccccc1	>57	u
c1cc2c(nn1)CCc1nonc1-2	>57	-12.1%
CCCCC(=O)N=c1sc2cc(S(C)(=O)=O)ccc2n1C	>57	1.4%
Cc1ccc(-c2[nH]nc3c2C(c2ccoc2)C(C#N)=C(N)O3)cc1C (stereo not given)	>57	9.8%
C=C(NC(=O)C(=C)NC(=O)c1csc(C2=N[C@@H]3c4csc(n4)[C@@H]4NC(=O)c5csc(n5)[C@@H]([C@](C)(O)[C@H](C)O)NC(=O)[C@@H]5CSC(=N5)/C(=C/C)NC(=O)[C@@H]([C@H](C)O)NC(=O)c5csc(n5)[C@]3(CC2)NC(=O)[C@@H](C)NC(=O)C(=C)NC(=O)[C@@H](C)NC(=O)[C@@H]([C@@H](C)CC)N[C@H]2C=Cc3c([C@H](C)O)cc(nc3[C@@H]2O)C(=O)O[C@H]4C)n1)C(N)=O	>57	-9.0%[3.58 µM]
CN(Cc1ccccc1)C(=O)CSc1nc2ccccc2c(=O)n1Cc1ccco1	>57	-12.0%
COc1ccccc1/C=C/CN1CCOCC1	>57	-14.6%
CCOC(=O)C1=C(C)NC(=O)NC1c1ccccc1Cl (stereo not given)	>57	-9.7%
Cn1c(=O)c2c(nc(N3CCc4ccccc4C3)n2Cc2ccc(Br)cc2)n(C)c1=O	>57	11.7%
c1cncc(-c2nnc(-c3cccs3)o2)c1	>57	6.6%
COc1ccc(S(=O)(=O)N2CCCC2C(=O)Nc2ccc(C)cc2)cc1 (stereo not given)	>57	-7.5%
NC[C@H]1O[C@H](n2cnc3c(N)ncnc32)C[C@@H]1O	>57	-4.8%[8 µM]
Cn1ncc(C#N)c1NC(=O)C1CC(c2c(F)cccc2Cl)=NO1 (stereo not given)	>57	-7.4%

The final two records of the part above come first, to join the parts:
SMILES	Prx2 Sm inh	LT uptake inh
NC[C@H]1O[C@H](n2cnc3c(N)ncnc32)C[C@@H]1O	>57	-4.8%[8 µM]
Cn1ncc(C#N)c1NC(=O)C1CC(c2c(F)cccc2Cl)=NO1 (stereo not given)	>57	-7.4%
COc1ccc2c(c1OC)C(=O)OC2[C@H]1c2c(cc3c(c2OC)OCO3)CCN1C (stereo not given in full)	>57&>57&>57&>57	u
CSc1nncc(-c2ccc(F)c(F)c2)n1	>57	0.0%
O=C(Cc1cccs1)NCc1ccccc1F	>57	-3.3%
Cn1c(C(=O)N2CCc3ccccc32)cc2c(=O)n3ccccc3nc21	>57	4.7%
O=C(Nc1nncs1)c1ccc(S(=O)(=O)c2ccccc2)cc1	>57	1.9%
CCc1nnc(NC(=O)CN2C(=O)c3ccccc3C2=O)s1	>57	u
COC(=O)C/C=C\[C@@H](C)[C@@H](/C=N\O[C@@H](C)CN1CCCCc2nc(C)c(C)cc21)NS(=O)(=O)c1ccc(C)cc1	x	5.5%[1.6 µM]
CN(C)CCn1c(C(=O)O)cc2ccccc21	>57	-6.1%
CCOc1ccccc1-n1cnc2cc(C(=O)NCc3ccco3)ccc21	>57	3.3%
Nc1cc(N)nc(SCC(=O)N2CCCCC2)n1	>57	-3.2%
N#CCCN1CCN(C2=NC(=O)C(=C3CCCCC3)S2)CC1	>57	14.3%
O=C(c1ccco1)N1CCC2(CC1)CCN(c1ccncc1)CC2	>57	u
COCCNc1ccnc(-c2c(C)noc2C)n1	>57	10.7%
COc1ccccc1-c1nnc(NC(C)=O)s1	>57	-0.6%
Cc1cccc2cc(C(c3nnnn3CC3CCCO3)N3CCCC4(CCCCC4)C3)c(=O)[nH]c12 (stereo not given)	>57	u
CCC(C)(C)C(=O)O	x	-4.7%
COc1ccccc1-c1cncnc1NCCNC(C)=O	>57	-2.5%
CCCCC(=O)Nc1nnc(SCC(=O)N2CCN(c3ccccc3OC)CC2)s1	>57	-2.5%
Cc1nc2sc3c(c2c2nnc(SCC(=O)NCc4ccco4)n12)CCCC3	>57	-11.4%
Cc1nn(-c2ccccc2)c(C)c1C(=O)OCC(=O)c1c(N)n(CC(C)C)c(=O)n(C)c1=O	>57	u
O=C(Nc1cc(Cl)ccc1O)c1cc2n(n1)C(C(F)(F)F)CC(c1ccc3c(c1)OCO3)N2 (stereo not given)	>57	u
Cc1ccc(C(=O)c2cc3c(cc2N)OCCO3)cc1	>57	-8.2%
COc1cccc(CSc2nnc(-c3ccc(F)cc3)o2)c1	>57	-6.1%
Cc1ccc(-n2ncc3c(=O)n(CC(=O)Nc4cccc(Cl)c4)cnc32)cc1C	>57	-18.6%
CN(C)c1ccc(-c2ccc3ncnc(NCc4ccccc4)c3c2)cc1	>57	u

Grouped by structure: the entries above with an NH in an aromatic ring (four)
SMILES	Prx2 Sm inh	LT uptake inh
CCc1c(C)[nH]n(-c2ccc(Oc3ccccc3)c(S(=O)(=O)O)c2)c1=O	x	2.3%
CCOC(=O)c1cnc(SCC)[nH]c1=O	>57	-2.0%
Cc1ccc(-c2[nH]nc3c2C(c2ccoc2)C(C#N)=C(N)O3)cc1C (stereo not given)	>57	9.8%
Cc1cccc2cc(C(c3nnnn3CC3CCCO3)N3CCCC4(CCCCC4)C3)c(=O)[nH]c12 (stereo not given)	>57	u

Next results follow:
SMILES	Prx2 Sm inh	LT uptake inh
NC(=O)C1CCN(C(=O)c2cc3ccccn3n2)CC1	>57	4.1%
COc1cccc(CN2CCN(c3ncccn3)CC2)c1	x	-4.1%
COc1cc2c(cc1OC)CN(C(=O)CSc1nc3[nH]ncc3c(=O)n1-c1ccccc1)CC2	>57	-4.5%
CCCC(=O)Nc1ccc(Cl)c(NC(=O)c2ccco2)c1	>57	1.0%
CNC1=C(Cl)C(=O)c2ccncc2C1=O	x	u
CNc1ccccc1	x	0.7%
CCN1CCCC1CNC(=O)c1cc(NC(C)=O)c(N(C)C)cc1OC (stereo not given)	>57	2.7%
Cc1ccc(C)c(NC(=O)C2CCCN2C(=O)OC(C)(C)C)c1 (stereo not given)	>57	-18.8%
CC(C)[C@@H](CC(=O)N[C@@H]1CCCC[C@H]1C(=O)N[C@H](CC(=O)N[C@@H](CCC(=O)O)CC(=O)O)Cc1c[nH]c2ccccc12)NC(=O)C[C@H](CO)NC(=O)[C@@H]1CCCC[C@H]1N	>57	-5.7%
Cc1occc1-c1nnc(SCC(=O)NCc2ccc3c(c2)OCO3)n1CC(C)C	>57	-16.3%
CCOC(=O)C1=C(N)OC2=C(C(=O)CCC2)C12C(=O)Nc1ccccc12 (stereo not given)	>57	-3.3%
O=C(NC1CCN(Cc2ccccc2)CC1)c1ccccc1F	>57	0.0%
O=C(Cn1nc(-c2ccccc2)nc1-c1ccccc1)N1CCOCC1	>57	4.6%
COc1cc2c(cc1C(F)(F)F)N(C(=O)Nc1cc(F)cc(-c3cccnc3)c1)CC2	>57&>57	u
CN(C)S(=O)(=O)N(CCN1CCOCC1)Cc1ccccc1F	>57	-4.4%
CC(C)C1CC(O)(C2(O)CCCCC2)ON1 (stereo not given)	>57	-5.2%
COc1ccc(C2C(C(C)=O)=C(O)C(=O)N2CCO)c(OC)c1 (stereo not given)	>57	-20.9%
COc1cc(CNC2CCCCCC2)cc(OC)c1OC	>57	-8.8%
CN(C)CCCNS(=O)(=O)c1cc(Cl)ccc1Cl	>57	-6.5%
O=C(NCCCN1CCCC1)C1CCN(C(=O)c2cc3sccc3n2Cc2ccc(F)cc2)CC1	>57	-14.5%
Cc1oc(-c2ccc(Cl)cc2)nc1CN1CCC(C(=O)NCCCN2CCCC2=O)CC1	>57	-4.7%
CSc1nc(NCC(C)C)nc(N2CCOCC2)n1	>57	7.3%
COc1ccccc1N1C(=O)C2C3C=CC(C3)C2C1=O (stereo not given)	>57	-11.5%
C/C(N)=C(/C#N)C(=O)COc1ncnc2ccc(Br)cc12	>57	-4.5%
CC(C)C(NC(=O)C1CCCCC1)C(=O)NCc1ccccn1 (stereo not given)	>57	14.8%

Other compounds.
SMILES	Prx2 Sm inh	LT uptake inh
COc1ccc(Nc2ncc3nc(-c4cccs4)c(=O)n(Cc4cccc(OC)c4)c3n2)cc1	>57	u
COc1ccc2[nH]c(=O)c(C(c3nnnn3CC3CCCO3)N3CCc4ccccc4C3)cc2c1 (stereo not given)	>57	17.8%
N/N=C1/c2ccccc2N[C@H]1OC(=O)Nc1cccc(Cl)c1	>57	u
Cc1cc(NS(=O)(=O)c2ccc(NC(=O)CN3C(=O)c4ccccc4C3=O)cc2)nc(C)n1	>57	4.1%
CCOC(=O)c1ccc2[nH]c(C)c(CN3CCN(C)CC3)c(=O)c2c1	>57	3.9%
Cn1c(=O)c2c(SCc3ccccn3)nc(-c3ccccc3)nc2n(C)c1=O	>57	6.8%
CCC(C)(C)NC(=O)CN(C(=O)CCC(=O)Nc1cc(C)ccn1)c1ccc2c(c1)OCO2	>57	u
CCOCCCNC(=O)CN1CCN(Cc2ccccc2C)C1=O	>57	12.1%
CCCn1c(=O)c(C(=O)NCc2ccccn2)c(O)c2ccccc21	>57	-23.7%
Cc1ccc(C(=O)CSc2nc3cc(S(=O)(=O)N4CCOCC4)ccc3o2)cc1	>57	-11.2%
Cc1ccccc1-c1nccc(-n2ccnc2)n1	>57	u
CC(C)(C)c1ccccc1OCC(=O)Nc1ncn[nH]1	>57	u
CCCCn1c(=O)cc(O)c2ccccc21	>57	-2.2%
CSC1=NC(NCCCO)c2c(sc3c2CC(C)(C)OC3)N1 (stereo not given)	>57	u
CC(=O)N(Cc1ccc2c(c1)OCO2)C1CC(=O)N(CCc2ccccc2)C1=O (stereo not given)	>57	2.1%
CCc1ccc(-c2ccc(C(=O)O)cc2)nc1	>57	-10.6%
COCC(C)NC(=O)c1cc(-c2ccc(OC)c(OC)c2)on1 (stereo not given)	>57	-1.4%
FC(F)(F)c1ccccc1-c1cncnc1NCCc1cnc[nH]1	>57	-2.8%
CCOc1ccccc1N(CC(=O)NCC1CCCO1)C(=O)CCC(=O)Nc1ccccn1 (stereo not given)	>57	9.9%
CCN(CC)c1ccc(NC(=O)c2ccc(Br)o2)c(C)c1	>57	-5.6%
CC1=C(C(N)=O)C(c2ccncc2)n2nc(-c3ccccc3Cl)nc2N1 (stereo not given)	>57	-2.9%
COc1ccc(Cn2nnnc2C(c2ccncc2)N2CCOCC2)cc1 (stereo not given)	>57	-9.2%
C=CCn1c(SCC(=O)NCc2ccco2)nnc1-c1ccc2ccccc2n1	>57	u
COc1ccc(-c2noc(CSc3nnc(Cc4ccccc4)n3-c3cccc(C)c3)n2)cc1OC	>57	u
Cc1ccccc1Nc1nc(N)nc(CN2C(=O)NC3(CCCCC3C)C2=O)n1 (stereo not given)	>57	u

Compound profiles, as listed above:
Entry for Cc1ccccc1-c1nccc(-n2ccnc2)n1 = Prx2 Sm inh = >57; LT uptake inh = u
Entry for COc1ccc(-c2noc(CSc3nnc(Cc4ccccc4)n3-c3cccc(C)c3)n2)cc1OC = Prx2 Sm inh = >57; LT uptake inh = u

New compounds follow:
SMILES	Prx2 Sm inh	LT uptake inh
Nc1ccc(S(=O)(=O)NC(=O)c2ccccc2)cc1	>25.6	-1.8%[3.58 µM]
COCCn1c(=O)c(CCc2ccccc2)nc2cnc(OCc3ccccc3)nc21	>57	u
CC(C)=NOCc1ccc(-c2cc(-c3ccccc3)no2)cc1	x	-9.6%[8 µM]
O=C1[C@@H]2C(Cc3ccc(O)cc3)NC3(C(=O)Nc4ccc(F)cc43)[C@@H]2C(=O)N1c1ccc(F)cc1 (stereo not given in full)	>57	-19.7%
COC(=O)[C@H](CCSC)NC(=O)Nc1cc(C)ccc1C	>57	-2.2%
COc1ccc(NC(=O)C2CCN(S(=O)(=O)c3cccc4cccnc34)CC2)cc1	>57	-27.5%
COc1cc(NCCC(=O)O)c2ncccc2c1	>57	2.4%[8 µM]
O=C(c1cccc(F)c1)N1CCN(c2cccc(C(F)(F)F)c2)CC1	>57	x
Clc1cccc(Nc2ncnc3c2cnn3-c2ccccc2)c1	>57	u
COc1ccc(Oc2ncc3nc(C)c(=O)n(Cc4cccc(OC)c4)c3n2)cc1	>57	u
COc1cccc(NC(=O)c2nnn(CCc3ccccc3)c2N)c1	>57	u
c1ccn2c(CNc3ncnc4sccc34)nnc2c1	>57	-1.6%
CCOC(=O)N1CCC(NC(=O)C2CCN(c3nc(-c4ccc(OC)cc4)no3)CC2)CC1	>57	x
N=C1C(c2nc3ccccc3s2)=C(O)CN1Cc1ccco1	x	-4.1%
CS(=O)(=O)N(CC(=O)N1CCN(c2ccccc2)CC1)C1CCCCC1	>57	-11.9%

Screening results as filed in PubChem BioAssay.

Some of the compounds tested. The share of hits here may be higher or lower than overall.
